# B2AR ag = activates human beta-2 adrenergic receptor causing internalization | Am2.2-beta2AR cells, FAP receptor internalization, flow cytometry; reference of the scale not given here | P07550 | response, % (test concentration not listed) | actives 0.43% (n = 340,000);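 active means response above a set limit, near 3 SD of response in nonfluorescent compounds, cut at about 42% in these data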;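 further: stock transfer was 100 nL into about 11 µL; a reference agonist was the positive control; negative values mostly stem from fluorescent compounds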
# LANA-H2B inh = blocks KSHV LANA binding to histone H2A/H2B. Q9QR71. cell-free LANA-H2A/H2B peptide, fluorescence polarization. inhibition, % (concentration not given with the values). actives 0.6% (n = 320,000). AID 2629; in the data active means inhibition mostly above about 10%, no sharp cut-off; inactive means mostly below about 6.7%;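 further: stock transfer was 7.5 nL into about 10 µL; 0% = median of vehicle wells and 100% = median of positive control wells; one replicate is shown; the record names a cut of 25% in any replicate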
# Target sequence (Q9QR71 whole entry, looked up): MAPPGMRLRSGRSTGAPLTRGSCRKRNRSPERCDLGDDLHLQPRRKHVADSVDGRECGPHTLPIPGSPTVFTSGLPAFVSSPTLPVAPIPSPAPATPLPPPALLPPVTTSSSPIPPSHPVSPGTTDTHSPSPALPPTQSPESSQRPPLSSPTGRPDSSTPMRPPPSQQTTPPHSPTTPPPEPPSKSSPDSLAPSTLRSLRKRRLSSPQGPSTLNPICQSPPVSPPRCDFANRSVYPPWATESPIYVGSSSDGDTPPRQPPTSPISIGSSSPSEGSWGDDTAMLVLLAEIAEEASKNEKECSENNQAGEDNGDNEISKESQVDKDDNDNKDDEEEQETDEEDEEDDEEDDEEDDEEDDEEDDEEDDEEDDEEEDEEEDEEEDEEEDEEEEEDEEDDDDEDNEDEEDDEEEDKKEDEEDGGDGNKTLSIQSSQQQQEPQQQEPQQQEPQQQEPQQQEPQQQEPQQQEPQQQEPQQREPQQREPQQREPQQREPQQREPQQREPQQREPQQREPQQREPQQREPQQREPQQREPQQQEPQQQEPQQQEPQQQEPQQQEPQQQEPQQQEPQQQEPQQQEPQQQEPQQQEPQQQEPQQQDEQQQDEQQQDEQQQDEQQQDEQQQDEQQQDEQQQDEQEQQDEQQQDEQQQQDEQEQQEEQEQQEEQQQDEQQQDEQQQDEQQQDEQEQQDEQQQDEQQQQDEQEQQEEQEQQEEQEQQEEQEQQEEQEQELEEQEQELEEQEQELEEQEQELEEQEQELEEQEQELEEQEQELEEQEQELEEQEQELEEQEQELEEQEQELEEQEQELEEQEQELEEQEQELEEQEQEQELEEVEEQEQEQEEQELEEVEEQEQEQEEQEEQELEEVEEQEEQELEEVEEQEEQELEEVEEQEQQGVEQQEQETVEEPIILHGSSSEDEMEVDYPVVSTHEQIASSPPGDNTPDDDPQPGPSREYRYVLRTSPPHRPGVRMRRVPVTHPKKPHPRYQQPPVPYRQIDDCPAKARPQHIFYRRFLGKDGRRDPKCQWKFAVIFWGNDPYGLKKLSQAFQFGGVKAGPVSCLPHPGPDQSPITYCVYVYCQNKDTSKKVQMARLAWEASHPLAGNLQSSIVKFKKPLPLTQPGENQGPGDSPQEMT
# Ecoli growth = inhibitors of Escherichia coli growth; OD600 absorbance (no concentration beside the values); AID 1053175; actives 0.21% (n = 330,000); OD600, 23 h; hits give low values;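 active means OD600 absorbance below the run mean of sample wells minus 3.6 SD, in any replicate, cut at about 0.56 in these data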;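 further: stock transfer was 300 nL into about 60 µL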
# ALR inh = blocks human ALR sulfhydryl oxidase activity. actives 3.8% (n = 290,000). P55789. purified ALR, DTT oxidation, H2O2 HRP-luminol luminescence. inhibition, % (no concentration beside the values). AID 485317;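 active means mean and each replicate at 75% or more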;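 further: stock transfer was 7.5 nL into about 7.5 µL; 0% = neutral wells and 100% = wells with inactivated enzyme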
# HNF4A DNA FP = change in binding of human HNF4 alpha to DNA | actives 0.3% (n = 360,000) | activity change, % at 10 µM | HNF4a-FITC DNA binding, fluorescence polarization, 1 h | P41235; in the data active means activity change above about 30%, passing the limit was not always enough;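 further: controls were the assay level and a saturating level of protein; the project sought stronger binding though the title names inhibitors; some compounds called inactive have numbers as strong as hits; positive values seem to mean higher polarization but the record does not say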
# FGF22 binding = binders of recombinant human FGF22 by thermal shift. Q9HCT0. SYPRO orange fluorescence; percent of sucrose octasulfate shift, DMSO zero. calls only at 9.99 µM. actives 1.5% (n = 340,000). AID 651658;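 active means melting point raised past a set limit in the mean and every replicate; three in four hits are not shown here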
# UCH37 inh = blocks the human deubiquitinase UCH37 | actives 0.33% (n = 330,000) | Q9Y5K5 | inhibition, % (concentration not given with the values) | purified proteasome/UCH37, Ub-AMC cleavage fluorescence;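 active means mean of two replicates above 20%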;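 further: 0% = compound-free wells with enzyme and 100% = wells lacking proteasome; stock transfer was 100 nL into about 20 µL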
#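 Material: human UCH37 enzyme supplied as purified proteasome complex. Measure: % inhibition of Ub-AMC cleavage fluorescence. Medium: pH 7.4 Tris-HCl (50 mM) with ovalbumin, ATP-MgCl2, DTT. Times: 30 min preincubation with enzyme, 25 min cleavage at room temperature. Detection: AMC fluorescence intensity at 355/460 nm.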
# Numbers without * were called inactive; i = inactive; / = not tested or not shown. An excerpt, so the mix of outcomes need not match the whole.
SMILES,B2AR ag,LANA-H2B inh,Ecoli growth,ALR inh,HNF4A DNA FP,FGF22 binding,UCH37 inh
CC1CCCC(C)N1C(=O)COC(=O)c1ccc2c(c1)OCO2 (stereo unspecified),5,-5.6,0.67,3,0.0,/,2.4
Cc1nc(C)n(C(C)CNC(=O)c2ccco2)n1 (stereo unspecified),-3,-4.2,0.62,7,-0.5,i,1.2
CCC(C)n1ncn(-c2ccc(N3CCN(c4ccc(OC)cc4)CC3)cc2)c1=O (stereo unspecified),-6,7.3,0.67,-9,0.9,i,-2.3
COc1ccccc1-c1sc2ccccc2c1-c1ccc(C(C)=O)cc1,0,0.2,0.67,-3,4.8,/,0.0
O=C(Nc1nc2c(F)cccc2s1)C1CC1,3,-1.4,0.74,7,-0.8,i,5.3
CC(=O)Nc1ccc(NC(=O)c2ccc(NS(=O)(=O)c3cc(C(C)(C)C)cc(C)c3C)cc2)cc1,0,-6.5,0.72,-1,2.3,i,-21
CC(=O)Oc1oc(-c2ccccc2)nc1C=Nc1ccccc1,2,0.7,0.75,50,0.2,/,1.8
FC(F)(F)c1ccc(/C=N/N2CCN(Cc3cccc4ccccc34)CC2)cc1,17,0.2,/,-2,-2.2,/,/
Nc1ncc(-c2ccc([N+](=O)[O-])cc2)cn1,-4,-2.6,/,-10,1.9,i,/
COc1cc(N/N=C(\C)c2ccc(O)c(C)c2)nc(-c2ccccc2)n1,5,4.8,/,10,1.1,i,/
CCCCN(CC)CCNC(=O)Cn1cnc2sc(C)c(S(=O)(=O)N3CCOCC3)c2c1=O,3,0.6,0.7,/,-1.2,/,5.0
O=C(COC(=O)CC1CC2CCC1C2)Nc1ccccc1[N+](=O)[O-] (stereo unspecified),-7,1.9,0.68,-2,-3.0,i,5.2

# The list goes on; it opens with the two that closed the last part.
SMILES,B2AR ag,LANA-H2B inh,Ecoli growth,ALR inh,HNF4A DNA FP,FGF22 binding,UCH37 inh
CCCCN(CC)CCNC(=O)Cn1cnc2sc(C)c(S(=O)(=O)N3CCOCC3)c2c1=O,3,0.6,0.7,/,-1.2,/,5.0
O=C(COC(=O)CC1CC2CCC1C2)Nc1ccccc1[N+](=O)[O-] (stereo unspecified),-7,1.9,0.68,-2,-3.0,i,5.2
O=C(CCCc1nc(-c2ccccc2Cl)no1)NC1CCCCC1,2,-4.9,0.72,0,0.2,/,-0.7
Cc1cc(NC(=O)CCCn2cnc([N+](=O)[O-])n2)no1,-2,2.2,0.72,-18,2.3,i,4.0
O=C(Nc1nccs1)C1CCCN(S(=O)(=O)c2cccnc2)C1 (stereo unspecified),0,-1.4,0.72,-4,1.3,/,5.1
CCn1nc(C)cc1Nc1ccccc1,12,-0.1,0.7,61,-0.4,/,5.2
Cc1cccc(OCCOCCN2CCNCC2)c1C,2,7.3,0.64,-38,-0.9,/,5.9
CC(C(=O)OCC(=O)c1ccc(Br)cc1)N1C(=O)C2C3C=CC(C3)C2C1=O (stereo unspecified),-10,3.7,0.69,-23,-1.0,i,-0.7
O=S(=O)(c1ccc(SCCOc2ccc(Cl)cc2)nc1)N1CCCC1,-12,-1.7,0.7,-1,0.6,i,-4.3
Cc1nc2ccc(C(=O)OCc3nnc(-c4ccc(Br)cc4)o3)cc2nc1C,6,-3.9,0.74,/,-0.2,i,1.5
Cc1ccc(SCCNC(=O)C(CO)(CO)CO)cc1,-6,0.7,0.72,3,1.4,i,2.6
Clc1c(CSc2nc3ccccc3o2)nc2sccn12,-6,-1.1,0.65,40,1.2,/,2.8
Cc1ccccc1S(=O)c1ccccc1C(=O)O (stereo unspecified),-1,1.7,0.71,-10,-1.3,i,1.9
Cc1[nH]c(=O)[nH]c(=O)c1S(=O)(=O)Nc1ccc(F)c([N+](=O)[O-])c1,-4,0.4,0.69,-9,-2.4,i,1.8
CN(C)c1cccc(C(=O)NNC(=O)CSc2ccccc2)c1,11,2.7,0.63,/,-0.4,i,-2.1
COC1(OC)N=C(NC(=O)Nc2ccccc2)C2(C#N)C(c3ccccc3)C12C#N (stereo unspecified),-2,-1.5,0.71,99*,-0.2,/,3.1
CC(C)(C)c1ccc(-n2ncc3c2CCCC3NC(=O)CN2CCOC2=O)cc1 (stereo unspecified),11,0.0,0.72,-5,1.8,i,-1.4
Cc1ccsc1/C=N/NC(=O)CNC(=O)c1cccc([N+](=O)[O-])c1C,2,-1.2,/,-1,0.1,i,/
CCOC(=O)c1ccc(NC(=O)CSCCC(=O)O)cc1,2,1.9,0.68,99*,-3.2,i,2.2
Nc1ccccc1Nc1cc(-c2ccccc2)[nH]n1,28,/,0.69,/,13,i,3.7
Cc1ccc(NC(=O)CN(C)C(=O)CNC(=O)c2ccc3c(c2)OCO3)cc1,-7,-0.3,0.64,5,-1.4,/,1.8
Cc1ccc(N2CC(C(=O)Nc3ccccc3N3CCCC3)CC2=O)cc1 (stereo unspecified),-8,-1.9,0.67,73,-1.4,i,2.9
CC(C)(CO)Nc1nc(Cl)nc(NC2CCCCC2)n1,-3,4.0,0.69,-3,3.0,i,5.7
COC(=O)c1ccc(C2C(C(C)=O)=C(C)Nc3ncnn32)cc1 (stereo unspecified),5,2.5,0.7,-2,0.3,i,3.5
Cc1ccc(N2C(N)=C(C#N)C(c3cccs3)C3=C2CC(C)(C)CC3=O)cc1 (stereo unspecified),33,0.1,0.71,10,2.5,/,-6.2
CCOc1ccc(C(Nc2ccc(C)cc2)P2(=O)OCCC(C)O2)cc1 (stereo unspecified),4,-0.2,0.69,98*,-3.7,/,30*

# Records listed above shown as hits in UCH37 inh:
SMILES,B2AR ag,LANA-H2B inh,Ecoli growth,ALR inh,HNF4A DNA FP,FGF22 binding,UCH37 inh
CCOc1ccc(C(Nc2ccc(C)cc2)P2(=O)OCCC(C)O2)cc1 (stereo unspecified),4,-0.2,0.69,98*,-3.7,/,30*

# (more compounds)
SMILES,B2AR ag,LANA-H2B inh,Ecoli growth,ALR inh,HNF4A DNA FP,FGF22 binding,UCH37 inh
COCCNC(=O)[C@@H]1CCCN1C(=O)C1CCN(S(=O)(=O)c2ccc(C)cc2)CC1,3,3.9,0.69,-4,1.1,i,1.2
COc1ccc(OCC(=O)N2CCN(C(=O)COc3ccc(Br)cc3)CC2)cc1,-2,0.4,0.71,-16,2.1,/,4.4
CCSc1nc2n(n1)C(c1cccc(F)c1)C1=C(CCCC1=O)N2 (stereo unspecified),-5,-3.2,0.73,-9,4.5,/,-15
CCN(CC)c1ccc(C=Nc2cccnc2Cl)c(O)c1,6,-2.1,0.68,-20,-0.1,i,14
Cc1cc2oc(=O)cc(CN3CCN(Cc4ccccc4)CC3)c2cc1Cl,-8,-1.7,0.73,-8,-1.9,/,-1.4
O=C(c1ccccc1)N1CCN(C(=O)c2ccc3c(c2)OCCO3)CC1,3,-2.9,0.7,7,-1.6,i,-1.0
CCOC(=O)c1nnc(-c2ccccc2)o1,7,6.2,0.67,/,-0.4,/,-0.2
CCn1ncc(N(C)N)c(Cl)c1=O,0,5.6,0.72,-14,0.5,i,3.3
O=c1[nH]cn[nH]1,0,3.9,0.7,-3,11,i,3.1
CCO[C@@H]1OC(C(=O)Nc2ccccc2)=C[C@H](c2ccccc2)[C@H]1CCCO,-1,-2.7,/,7,0.1,i,/
Cc1ccc(S(=O)(=O)N2CCN(C)CC2)c(C)c1,0,0.4,0.68,-8,3.6,/,5.4
CCCCCOC(=O)C1=C(C)NC(=O)NC1c1ccc([N+](=O)[O-])cc1 (stereo unspecified),0,0.8,0.66,/,0.4,i,1.5

# 3 entries out of the list above, arranged by the number in B2AR ag, ascending:
smiles | B2AR ag | LANA-H2B inh | Ecoli growth | ALR inh | HNF4A DNA FP | FGF22 binding | UCH37 inh
CCn1ncc(N(C)N)c(Cl)c1=O | 0 | 5.6 | 0.72 | -14 | 0.5 | i | 3.3
COCCNC(=O)[C@@H]1CCCN1C(=O)C1CCN(S(=O)(=O)c2ccc(C)cc2)CC1 | 3 | 3.9 | 0.69 | -4 | 1.1 | i | 1.2
CCOC(=O)c1nnc(-c2ccccc2)o1 | 7 | 6.2 | 0.67 | / | -0.4 | / | -0.2

# (list continues)
SMILES,B2AR ag,LANA-H2B inh,Ecoli growth,ALR inh,HNF4A DNA FP,FGF22 binding,UCH37 inh
COCCN1C(=O)N[C@@H](c2ccc(Br)cc2)C(C(=O)OC)=C1C,/,5.2,/,-3,/,/,0.8
COc1cc(/C=C2/C(=O)N(c3ccc(Br)cc3)N=C2C)cc(OC)c1OC,11,/,0.61,/,-0.6,/,2.9
CCCc1cnc(NCCNCC(O)COc2ccc(Cl)c(Cl)c2)nc1 (stereo unspecified),18,-0.4,/,-3,-2.3,i,/
O=C(OCCN=C1NS(=O)(=O)c2ccccc21)c1ccccc1,10,2.0,0.74,0,1.0,/,2.3
CCOCC(=O)OCC(=O)Nc1cc(OC)c([N+](=O)[O-])cc1C,-9,-7.7,0.72,-2,-0.7,i,3.9
Cc1nc2c(=O)n(-c3cccc(C(F)(F)F)c3)nc(C)c2s1,-20,-0.6,0.64,-1,-4.0,i,3.7
Cc1cc(C)cc(NC(=O)C2C3C=CC4(O3)C2C(=O)N(CCN2CCCCC2)C4C(=O)NC2CCCCC2)c1 (stereo unspecified),-1,-0.7,0.67,1,5.0,i,0.9
Cc1cccc(N(CC(=O)NC2CCCCC2)C(=O)CCC(=O)Nc2ccccn2)c1,/,-3.7,0.76,-2,/,/,5.5
